# Vif TR-FRET: inhibitors of Vif binding to APOBEC3G peptide, primary screen, biochemical, TR-FRET, GST-Vif 1-94, biotin-A3G peptide, dose response retest (AID 1117319) | one-dose inhibition, %; IC50 in µM for titrated hits | TR-FRET GST-Vif / biotin-A3G peptide binding; higher % means a stronger effect; test concentration not given here; strong numbers were not always called active | 260,000 tested, 0.57% active;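 active = above the screen mean plus three standard deviations and confirmed in dose response; inconclusive = results disagree or hit not tested in dose response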;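 also: Vif residues 1-94 fused to GST binding biotinylated APOBEC3G peptide 110-148; 0% = full assay without inhibitor and 100% = GST in place of GST-Vif; retest series ran down from 100 µM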
# A1 inh: inhibitors of the anti-apoptotic protein A1, read as caspase activation | caspase activation, % (no concentration beside the values) | AID 2462 | 330,000 tested, 0.066% active | MEF A1-2A-BIM cells, Caspase-Glo 3/7 luminescence, 3 h; percent of clofoctol response, vehicle zero;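 active = over half of replicate activation scores above 10%, or exactly half above 10 with the replicate mean above 10; inconclusive = replicate mean below 10 yet half the replicates above 10; inactive = over half of replicates below 10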;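 also: wells of about 30 µL received 50 nL stock; many hits fall short of the cut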
# RanGTP-Impb inh: inhibitors of RanGTP-importin-beta interaction, primary screen, biochemical, FRET, CFP-Ran, YFP-importin-beta, homogeneous. cell-free CFP-Ran/YFP-importin-beta FRET ratio. inhibition, % (concentration not given with the values). 300,000 tested, 1.1% active;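 active = most replicates above 15%; inconclusive = exactly half above 15%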;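 also: 0% = DMSO wells and 100% = Ran loaded with GDP instead of GTP; wells of about 40 µL received 100 nL stock; the first replicate is given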
# MLL AF4-AF9 inh: MLL-AF4/AF9 protein interaction inhibition. AlphaScreen, biotin-AF4 peptide binding to FLAG-AF9. AID 651704. 350,000 tested, 0.47% active. inhibition, % at 10 µM. P42568;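 active = every replicate reaching a set inhibition limit, whatever the replicate mean, cut at about 25% in these data; inconclusive = mean inhibition reaches that limit but some replicates miss it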;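 also: 0% = plate neutral control median and 100% = total signal loss; the record names both 10 and 1 µM as test concentration; the first replicate is given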
# T cruzi inh: T. cruzi replication inhibition. inhibition, % (test concentration not listed). 300,000 tested, 1.4% active. T. cruzi beta-gal in NIH3T3, luminescence, 90 h;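 active = mean inhibition across valid replicates above about 55%, limit read from the data; inconclusive = mean below that limit but half or more replicates reach it; inactive = mean below it, under half of replicates reach it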;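 also: signal also drops with host cell toxicity which is not excluded here; 0% = plate median of DMSO wells and 100% = zero luminescence signal; higher percent means less beta-gal luminescence so fewer parasites; stock transfer was 50 nL into about 50 µL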
# LANA-H2A inh: blocks KSHV LANA binding to histone H2A/H2B; 320,000 tested, 0.6% active; cell-free LANA-H2A/H2B peptide, fluorescence polarization; inhibition, % (test concentration not listed); in the data active = inhibition mostly above about 10%, no sharp cut-off; inactive = mostly below about 6.7%;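 also: stock transfer was 7.5 nL into about 10 µL; 0% = median of vehicle wells and 100% = median of positive control wells; one replicate is shown; the record names a cut of 25% in any replicate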
# Target sequence (Q9QR71 whole entry, looked up): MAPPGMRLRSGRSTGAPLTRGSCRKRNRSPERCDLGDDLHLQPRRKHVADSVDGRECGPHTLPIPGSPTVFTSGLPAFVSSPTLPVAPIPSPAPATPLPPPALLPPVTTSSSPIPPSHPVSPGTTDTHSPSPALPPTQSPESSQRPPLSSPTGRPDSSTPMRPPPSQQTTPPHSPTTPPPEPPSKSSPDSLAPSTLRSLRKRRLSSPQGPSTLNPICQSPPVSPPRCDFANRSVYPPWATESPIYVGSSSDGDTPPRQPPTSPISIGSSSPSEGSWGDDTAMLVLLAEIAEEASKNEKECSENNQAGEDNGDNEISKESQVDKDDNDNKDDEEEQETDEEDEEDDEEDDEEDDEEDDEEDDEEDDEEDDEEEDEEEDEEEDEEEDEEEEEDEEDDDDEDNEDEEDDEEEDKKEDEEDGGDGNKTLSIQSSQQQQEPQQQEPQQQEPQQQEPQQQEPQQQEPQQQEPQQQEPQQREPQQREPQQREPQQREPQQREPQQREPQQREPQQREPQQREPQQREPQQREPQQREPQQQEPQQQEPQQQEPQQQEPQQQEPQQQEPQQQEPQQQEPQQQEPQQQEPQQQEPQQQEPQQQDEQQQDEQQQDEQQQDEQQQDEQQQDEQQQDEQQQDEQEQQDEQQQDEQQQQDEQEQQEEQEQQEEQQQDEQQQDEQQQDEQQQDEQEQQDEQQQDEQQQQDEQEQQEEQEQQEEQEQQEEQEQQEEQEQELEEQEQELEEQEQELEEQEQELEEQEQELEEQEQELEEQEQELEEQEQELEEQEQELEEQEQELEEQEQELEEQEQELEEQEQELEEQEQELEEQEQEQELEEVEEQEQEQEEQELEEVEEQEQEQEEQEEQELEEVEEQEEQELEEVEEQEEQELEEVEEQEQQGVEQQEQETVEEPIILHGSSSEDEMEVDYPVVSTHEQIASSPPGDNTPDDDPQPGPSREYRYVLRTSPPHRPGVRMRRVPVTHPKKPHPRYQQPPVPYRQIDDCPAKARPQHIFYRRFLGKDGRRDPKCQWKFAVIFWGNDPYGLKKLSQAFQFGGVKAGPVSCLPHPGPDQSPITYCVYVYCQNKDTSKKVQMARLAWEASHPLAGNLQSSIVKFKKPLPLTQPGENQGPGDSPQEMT
# Beta apoptosis: blocks beta cell apoptosis. INS-1E cytokine-induced death, ATP luminescence, 48 h; percent of positive-control rescue, neutral wells zero. protection from apoptosis, % (test concentration not listed). 300,000 tested, 0.8% active;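 active = all replicates at 75% or more, or half of them and the mean; inconclusive = half reach 75% but not the mean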;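 also: 0% = cytokine-treated negative control wells and 100% = positive control rescue; higher means more ATP so stronger rescue from cytokine killing; wells of about 40 µL received 100 nL stock; the first replicate is given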
# Calb FLC: C. albicans growth modulation with fluconazole; 300,000 tested, 0.57% active; AID 1979; growth inhibition, % (concentration not given with the values); C. albicans CaCi-2 (fluconazole-resistant clinical isolate) + fluconazole, Alamar Blue growth, 48 h;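 active = most replicates above 75%; inconclusive = exactly half above 75%; inactive = most below 75%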;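 also: all wells also contain fluconazole at 8 µg/ml as a sub-toxic cotreatment; 0% = median of DMSO wells and 100% = median of geldanamycin control wells; wells of about 8 µL received 7.5 nL stock; the first replicate is given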
# * marks the source's active call; other numbers are inactive results; u = inconclusive; x = not tested or not shown.
canonical_smiles,LANA-H2A inh,T cruzi inh,MLL AF4-AF9 inh,A1 inh,RanGTP-Impb inh,Calb FLC,Vif TR-FRET,Beta apoptosis
Cc1cc2oc(=O)cc(CN3CCN(Cc4ccccc4)CC3)c2cc1O,-3.3,u,1.2,-0.2,5.5,26,3%,16
COc1ccc(S(=O)(=O)N2CCNC(=O)C2)cc1Br,-0.4,-12,0.2,-0.8,-2.8,-3,-6%,-5
COc1cccc(N2CC(C(=O)Nc3nnc(SCC(=O)N4CCOCC4)s3)CC2=O)c1 (stereo not given),-4.5,-8,-2.2,1.3,u,-6,x,-5
O=C(CSc1ccc(S(=O)(=O)N2CCOCC2)cn1)Nc1ccc(OC(F)F)cc1,x,x,-2.1,-0.6,x,x,-3%,2
Cc1ccc(NC(=O)CN2C(=O)NC(C)(C3CC3)C2=O)c(C)c1 (stereo not given),0.3,x,-1.2,-0.3,x,x,1%,-2
C=COCCNC(=S)N1CCOCCOCCN(C(=S)NCCOC=C)CCOCCOCC1,0.9,-1,-0.2,0.5,-2.7,0,1%,-1
Nc1ccccc1C(=O)NC1CCCNC1=O (stereo not given),5.9,-8,0.9,-0.6,4.2,11,x,-1
Cc1ccc(NC(=O)c2nccnc2C(=O)O)cc1C,-7.2,6,5.8,-0.6,2.4,-6,-4%,7
Cc1cc(C)n2c(SCC#N)nnc2n1,0.5,0,-5.1,-0.2,1.8,-2,1%,-4
O=C(Cc1nc2ccccc2[nH]1)c1cccc([N+](=O)[O-])c1,-2.7,23,2.0,-1.3,0.3,18,-5%,59

# Taken from above.
# MLL AF4-AF9 inh with `Cc1cc2oc(=O)cc(CN3CCN(Cc4ccccc4)CC3)c2cc1O` = 1.2
# T cruzi inh with `Cc1ccc(NC(=O)c2nccnc2C(=O)O)cc1C` = 6
# Calb FLC with `COc1cccc(N2CC(C(=O)Nc3nnc(SCC(=O)N4CCOCC4)s3)CC2=O)c1` (stereo not given) = -6

# Following part.
canonical_smiles,LANA-H2A inh,T cruzi inh,MLL AF4-AF9 inh,A1 inh,RanGTP-Impb inh,Calb FLC,Vif TR-FRET,Beta apoptosis
O=C(NCc1ccc(F)cc1)C1CCCN1C(=O)Nc1ccc(F)cc1 (stereo not given),0.1,-6,-3.4,0.5,-5.5,5,x,1
CCCn1c(CCc2ccccc2)nnc1SCC(=O)N1CCOCC1,-0.2,1,x,-1.1,-2.4,-5,3%,1
CN(Cc1ccc(F)cc1)C(=O)c1sccc1-c1ccccc1,1.5,-11,u,1.2,3.6,-4,-5%,-10
CCOc1ccc2oc(C(=O)N3CCN(Cc4ccccc4)CC3)c(C)c2c1,7.0,13,3.7,0.1,5.6,23,0%,-4
O=C(c1ccccc1F)N1CCN(c2ccccn2)CC1,-4.8,-8,-0.1,1.6,0.0,7,x,-10
Cc1ccc(S(=O)(=O)c2c(C)cc(C)nc2Cl)c(C)c1,0.8,59*,x,0.3,u,14,11%,-4
CC(=O)OCC(OC(C)=O)C(OC(C)=O)C(OC(C)=O)C(=O)Nc1ccccc1 (stereo not given),1.8,-7,0.6,1.4,-1.5,1,-2%,x
CNc1ncnc(Sc2ccc(Cl)cc2)c1[N+](=O)[O-],1.6,66*,-0.7,-0.1,4.7,6,x,-4
NC(=O)[C@@H]1CCCN1C(=O)[C@@H](Cc1cnc[nH]1)NC(=O)[C@@H]1CCC(=O)N1,1.7,x,-0.5,0.6,x,x,3%,-9
CCCn1nc(C(=O)NNC(=O)c2cc(S(=O)(=O)NC)ccc2Br)c2ccccc2c1=O,-11,4,-1.7,-0.6,3.9,0,3%,-1
Cc1cccc(N(Cc2ccccc2)C(=O)c2ccc(S(C)(=O)=O)cc2)c1,23*,1,-1.7,-0.6,2.7,11,7%,0
CC1(C)CC(=O)/C(=C(\O)c2ccccc2)C(=NCCO)C1,1.7,-13,x,0.4,2.1,-29,-7%,1
CC(C)CC(=O)NC(=S)Nc1ccc(S(=O)(=O)Nc2nccs2)cc1,2.7,-1,x,0.8,1.4,5,8%,1
O=C(COC(=O)C1CC1)Nc1ccc2c(c1)OCO2,-3.0,-5,-2.1,0.0,-0.6,4,x,1
CCOC(=O)C1(Cc2cccc(Cl)c2)CCCN(C(=O)c2cccc(C)n2)C1 (stereo not given),-3.9,14,4.1,-0.3,1.6,-4,-3%,-7
CCC(=O)c1ccc(OCC(O)CN2CCOCC2)cc1 (stereo not given),9.5,-3,x,0.6,3.0,-5,3%,-3
O=C(Nc1cccnc1Cl)c1cc(-c2ccc(O)cc2)on1,3.8,-16,-5.2,-2.7,1.0,2,x,x
NC(=NCCc1ccccc1)NS(=O)(=O)c1ccccc1,-4.6,-11,x,0.5,-1.4,9,9%,x
CCN(CC)S(=O)(=O)c1ccc(Cl)c(NC(=O)COC(=O)c2c(C)noc2C)c1,-3.6,6,-2.5,0.0,2.5,-7,19%,3
COC(=O)c1ccccc1NC(=O)CSc1nnc(-c2cccnc2)o1,-4.2,-8,-3.7,-0.1,u,2,14%,6
COC(=O)c1ccc(NS(=O)(=O)c2cc3c4c(c2)CCN4C(=O)CC3)cc1,-3.5,-10,-3.2,0.3,-1.6,-3,-3%,2
CC(=O)c1ccc(NC(=O)c2noc(C)c2[N+](=O)[O-])cc1,-5.3,-16,2.1,0.4,8.3,-4,-2%,-3
COc1cccc(-c2cc(C(=O)N3CCN(C(=O)c4ccco4)CC3)[nH]n2)c1,-1.3,-1,-4.5,-0.6,3.2,0,0%,-1
COc1ccc(OCc2nnc(SCC(=O)N3CCOCC3)o2)cc1,7.2,-5,-0.4,0.1,u,-11,3%,1
O=C(c1ccccc1F)N1CCN(c2ccccc2)CC1,-0.1,4,x,0.0,1.0,3,-4%,3
CCN(CC(=O)Nc1ccccc1C(F)(F)F)C(=O)CN1C(=O)NC2(CCCCC2)C1=O,-2.2,-13,-0.8,-1.5,5.1,1,0%,-5
Cc1ccc(NC(=O)c2ccc(Cl)c(S(=O)(=O)NCc3ccco3)c2)c(O)c1,-5.0,x,1.5,0.7,x,x,-1%,1
CCOc1ccc(S(=O)(=O)NCCC(=O)N(CC)CC(=O)Nc2c(F)cccc2F)cc1,1.3,-3,13,-0.4,0.5,-6,-3%,3
Cc1c(C(=O)N2CCOCC2)c(S(=O)(=O)Nc2cccc(Br)c2)c(C)n1C,0.6,4,-4.7,1.4,1.5,-14,x,-6
CC(C)C(=O)O/N=C1\CCS(=O)(=O)c2sccc21,-3.4,1,0.2,-0.1,0.2,0,-6%,1

# In a second layout: two of the compounds above.
COC(=O)c1ccc(NS(=O)(=O)c2cc3c4c(c2)CCN4C(=O)CC3)cc1
  LANA-H2A inh: -3.5
  T cruzi inh: -10
  MLL AF4-AF9 inh: -3.2
  A1 inh: 0.3
  RanGTP-Impb inh: -1.6
  Calb FLC: -3
  Vif TR-FRET: -3%
  Beta apoptosis: 2

CC(=O)c1ccc(NC(=O)c2noc(C)c2[N+](=O)[O-])cc1
  LANA-H2A inh: -5.3
  T cruzi inh: -16
  MLL AF4-AF9 inh: 2.1
  A1 inh: 0.4
  RanGTP-Impb inh: 8.3
  Calb FLC: -4
  Vif TR-FRET: -2%
  Beta apoptosis: -3

# (cont.)
canonical_smiles,LANA-H2A inh,T cruzi inh,MLL AF4-AF9 inh,A1 inh,RanGTP-Impb inh,Calb FLC,Vif TR-FRET,Beta apoptosis
O=C(OCC(=O)c1ccc(Cl)s1)c1ccc(CO)cc1,0.6,-7,-1.2,-1.4,3.9,-7,3%,-2
COc1ccccc1NC(=O)C(C)OC(=O)Cc1n[nH]c(=O)c2ccccc12 (stereo not given),1.1,3,-24,0.1,-2.2,-7,5%,0
CN(CCO)C(=O)CCC(=O)Nc1ccc(S(N)(=O)=O)cc1,0.6,-3,4.8,0.0,-0.5,-2,-1%,-5
CCc1ccc2c(c1)c1nnc(NN)nc1n2C,-0.9,18,14,0.1,2.5,1,x,6
CCn1c(CNC(=O)c2cccc(C)c2)nnc1SCC(=O)NC1CCCC1,-2.6,-1,-1.3,-1.8,-2.6,-5,x,x
CC(=O)c1ccc(N(C(=O)c2csnn2)C(C(=O)NC2CCCC2)c2ccccc2)cc1 (stereo not given),-2.3,-25,0.0,0.6,0.8,-3,2%,-7
CSCC[C@H](NS(=O)(=O)c1ccc(C)cc1)C(=O)N1CCC(C(=O)N[C@@H](C)C(=O)O)CC1,-5.1,-11,-3.2,0.1,-0.5,-3,x,0
CC(=O)NN1C(=O)/C(=C2/Sc3ccc(Cl)cc3N2C)SC1=S,4.5,0,0.6,0.5,-1.2,0,-8%,1
Cc1ccc(NCc2nnc(SCC(N)=O)o2)c(C)c1,2.0,-13,0.0,-0.2,3.3,-11,-3%,2
COc1ccc(Cl)cc1N(CC(=O)N1CCCCC1)S(C)(=O)=O,-1.1,-5,-0.3,0.0,-1.6,-20,x,1
COc1cccc(C2/C(=C(/O)c3ccc4c(c3)CC(C)O4)C(=O)C(=O)N2CC2CCCO2)c1 (stereo not given),0.1,x,x,2.1,x,-3,x,2
CCN(CC)c1ccc(/C=C(/C#N)c2nc3ccccc3[nH]2)c(OC(C)C)c1,4.2,39,x,-0.6,-59,40,11%,40
Cc1ccc(-c2cc(-c3nnc(SCC(=O)N(C)CCC#N)n3N)c3ccccc3n2)cc1,6.4,-4,x,-0.7,2.2,22,2%,-2
O=C(COC(=O)C1(c2cccc(F)c2)CCCC1)NCc1ccc2c(c1)OCO2,x,-1,x,0.4,1.5,-39,x,-4
O=C(c1nc2ccccc2s1)N1CCN(c2ccccn2)CC1,-0.4,x,x,0.0,x,x,13%,3
O=C(Oc1ccc(OC(=O)N2CCCCC2)cc1)c1ccccc1,6.2,-19,x,-5.0,4.9,-17,17%,x
COc1ccc(N2CCN(C(=O)c3cc(-c4cccs4)nc4ccccc34)CC2)cc1,-8.9,-8,20,0.2,2.8,13,4%,-13
CC(Cc1cccs1)NC(=O)c1cccc(Cl)c1 (stereo not given),-0.2,-5,-6.5,-0.7,-0.8,-11,0%,-3
C[n+]1ccc(C(=O)N/N=C/c2ccco2)cc1,-2.6,-1,-1.5,-0.9,-2.3,0,x,-2
COCCNC(=O)C(c1ccc(C)o1)N(Cc1ccc(F)cc1)C(=O)Cn1nnc2ccccc21 (stereo not given),-0.5,4,x,1.3,-1.1,4,11%,-4
CC(C)CC(=O)NNC(=S)Nc1ccc(S(N)(=O)=O)cc1,-3.3,-9,-18,0.1,-1.2,-1,15%,-3
CCc1cc2c(SCC(=O)N(C)C3CCS(=O)(=O)C3)ncnc2s1 (stereo not given),3.9,-1,-1.9,-0.1,-3.2,-4,x,0
O=C(NC(=S)Nc1ncccn1)c1ccccc1Cl,-6.0,5,-1.6,0.7,-1.6,-4,-3%,-4
CCN(CC)c1ccc(NC(=O)COc2ccccc2C#N)cc1S(=O)(=O)Nc1ccccc1OC,0.1,34,-5.3,-0.7,6.1,-10,15%,7
CC(=O)Nc1ccc(NC(=O)CNS(=O)(=O)c2ccc(C)cc2)cc1,3.0,2,x,-0.6,0.3,16,-4%,10
O=C(CC1C(=O)NCCN1Cc1ccc(F)cc1)NC1CCCCCCC1 (stereo not given),0.4,31,2.3,-0.3,-1.4,-6,x,6
COc1ccccc1/C=C/CN1CCCC(CCC(=O)NCc2ccc(F)c(F)c2)C1 (stereo not given),-0.7,68*,8.4,1.5,3.8,-28,5%,-12

# Bioassay records from PubChem BioAssay.
